# Screens: PubChem, National Center for Advancing Translational Sciences (NCATS)
# Cruzain inh noDet: inhibitors of Trypanosoma cruzi cruzain without detergent; P25779; purified cruzain, Z-FR-AMC fluorescence, no detergent; Potency, µM, inactives show max response, negative = inhibition, actives largely listed as inhibitors; actives 2.3% (n = 200,000); AID 1476; active = well fitted curve in the direction sought with a large enough effect; inconclusive = small, poorly fitted or top-dose-only effect, or another doubt; inactive = no such curve, though single readings can be large; an effect the other way counts as inactive or inconclusive;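 also: plate controls were enzyme without inhibitor for no effect and buffer without enzyme for full effect; nearly all actives have a fitted effect of over 40% in size; top concentration of the series not given in the record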
# Target sequence (P25779 123-467 limits assumed): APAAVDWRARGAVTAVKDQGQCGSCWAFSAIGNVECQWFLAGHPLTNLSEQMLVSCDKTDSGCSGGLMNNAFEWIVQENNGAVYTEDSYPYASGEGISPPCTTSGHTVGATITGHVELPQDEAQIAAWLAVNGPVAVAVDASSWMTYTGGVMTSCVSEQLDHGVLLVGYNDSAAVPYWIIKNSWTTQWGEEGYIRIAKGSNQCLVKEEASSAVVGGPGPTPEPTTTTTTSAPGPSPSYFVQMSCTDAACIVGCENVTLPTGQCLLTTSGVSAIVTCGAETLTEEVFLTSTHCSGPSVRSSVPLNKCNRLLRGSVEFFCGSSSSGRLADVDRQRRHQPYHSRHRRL
#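 Detergent-free condition (0.00005% Triton X-100) in acetate buffer pH 5.5 with DTT. 1.5 nM enzyme and compound were pre-mixed 15 min, then 2 uM Z-FR-AMC substrate added; reaction progress from fluorescence change between first and third reads (60 s).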
# NS1 function inh: blocks influenza NS1 protein function; actives 0.4% (n = 270,000); Potency, µM (doses to about 46.1 µM), for inactives: top-dose activity, positive = more growth; S. cerevisiae slowed by influenza A NS1, growth recovery by OD600; also: actives are rising curves; nearly all actives have a fitted effect of over 50% in size
#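 Read-out: OD600 growth recovery of NS1-expressing budding yeast. Cells grown overnight at 30C in -URA glucose medium, washed, resuspended and diluted 1:100 in 2% galactose assay medium, pH 6.0. Same strain lacking NS1 served as positive control.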
# SARS PLP yeast: blocks SARS-CoV papain-like protease in a yeast assay; S. cerevisiae expressing SARS-CoV PLpro, growth rescue; control for the full effect not named in the record; Potency, µM (doses to about 32.9 µM), inactives show top-dose activity, positive = growth rescue; actives 0.19% (n = 330,000); AID 485353; also: 0% is about no effect; nearly all actives have a fitted effect of over 55% in size; growth read by luminescence after 48 h
# 2A StopGo: FMDV 2A StopGo reporter, luciferase signal. human cells with a luciferase reporter of 2A StopGo recoding; control for the full effect not named in the record. Potency, µM (top dose mostly 57.9 µM), inactives show top-dose signal change, negative = less light. actives 1.2% (n = 410,000); active = well fitted falling curve with a large enough effect; inconclusive = small, poorly fitted or top-dose-only effect; inactive = no such curve, though single readings can be large or run the other way; tested in HEK293T cells; also: % is scaled to controls: 0 for no effect and ±100 for the full control effect; nearly all actives have a fitted effect of over 45% in size; luciferase light after 4 h
# LASV entry inh: inhibitors of Lassa virus binding or cell entry; AID 540256; Lassa virus pseudotype entry inhibition, cell reporter; control for the full effect not named in the record; actives 1.2% (n = 300,000); Potency, µM (series often up to 37.9 µM), without a hit: top-dose activity change, negative = inhibition, most hits filed as inhibitors; active means well fitted inhibition curve with a large enough effect; inconclusive means small, poorly fitted or top-dose-only effect, or effect the other way; inactive means flat fitted curve, though single readings scatter; tested in HEK293 cells; also: % is scaled to controls: 0 for no effect and ±100 for the full control effect; nearly all actives have a fitted effect of over 50% in size; luciferase read-out
# MARV entry inh: Marburg virus entry inhibition; actives 1.8% (n = 300,000); AID 540276; Potency, µM (titrated, usually from 37.8 µM), without a hit: at the highest dose activity change, negative = inhibition, most hits filed as inhibitors; Marburg virus pseudotyped entry inhibition, cell reporter; control for the full effect not named in the record; about a third of the inactives were read at about 46 µM; active = well fitted inhibition curve with a large enough effect; inconclusive = small, poorly fitted or top-dose-only effect, or effect the other way; inactive = flat fitted curve, though single readings scatter; tested in HEK293 cells; about a fifth of its hits are not listed in these tables; also: % is scaled to controls: 0 for no effect and ±100 for the full control effect; luciferase read-out
# Cruzain inh Det: inhibitors of Trypanosoma cruzi cruzain with detergent. P25779. purified cruzain, Z-FR-AMC fluorescence, 0.01% Triton. Potency, µM, for inactives: max response, negative = inhibition, usual class: inhibitors. actives 0.43% (n = 200,000); active = well fitted curve in the direction sought with a large enough effect; inconclusive = small, poorly fitted or top-dose-only effect, or another doubt; inactive = no such curve, though single readings can be large; an effect the other way counts as inactive or inconclusive;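 also: plate controls were neutral wells for no effect and buffer without enzyme for full effect; nearly all actives have a fitted effect of over 40% in size; top concentration of the series not given in the record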
#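 Sodium acetate buffer (100 mM, pH 5.5) containing 5 mM DTT and 0.01% Triton X-100 hosted 1.5 nM cruzain and test compound for 15 min at room temperature. Cleavage of 2 uM Z-FR-AMC was then tracked by fluorescence.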
# RE007 growth inh: less growth of the S. pombe RE007 Vpr strain; S. pombe RE007 Vpr strain, BacTiter-Glo ATP luminescence, 24 h; control for the full effect not named in the record; Potency, µM (highest dose often 92.2 µM), inactives show at the top dose activity change, negative = less growth; actives 0.21% (n = 360,000); active = well fitted falling curve with a large enough effect; inconclusive = small, poorly fitted or top-dose-only effect; inactive = no such curve, though single readings can be large or run the other way;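 also: % is scaled to controls: 0 for no effect and ±100 for the full control effect; nearly all actives have a fitted effect of over 50% in size; the assay follows cell death caused by Vpr and the record does not say whether a fall means rescue or toxicity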
#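 Fission yeast strain RE007, carrying one chromosomally integrated HIV-1 vpr copy, was seeded at OD 0.01 in PMG+AL medium with 23 nL pinned compound. After 24 h at 30 °C and 99% humidity, viability was read by BacTiter-Glo luminescence.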
# Numbers without * were called inactive; ? = inconclusive; . = no result given; & = joins results of further samples; [ ] = remark or other dose. Unless noted, calls follow the shape of the dose curve; as a rule, active means well fitted rising curve with a large enough effect; inconclusive means small, poorly fitted or top-dose-only effect; inactive means no such curve, though single readings can be large or run the other way. Potency is read from the fitted curve at half-maximal effect. Compounds as they come. About 4.5% of those tested had a hit in this group.
Molecule,Cruzain inh noDet,NS1 function inh,SARS PLP yeast,2A StopGo,LASV entry inh,MARV entry inh,Cruzain inh Det,RE007 growth inh
Cc1ccc(NC(=O)CSc2nnc(C3CC3)n2CC2CCCO2)c(C)c1 (stereo not drawn),.,6%,3%,7%,2%[46.1 µM],0%[46.1 µM],.,-10%
O=C(Cn1cc2c(n1)CCCC2)NCc1ccccn1,-2%,-3%,11%,0%,.,.,6.6%,-1%
Cc1ccccc1NC(=O)Cn1c(=O)n(CCCCCC(=O)NCc2ccccc2Cl)c(=O)c2sccc21,-2%,.,.,-18%,?,13%[46.1 µM],-1.4%,.
CCCN1CCN(C(=O)C2CCCN(c3ncnc4c3nc3n4CCCCC3)C2)CC1 (stereo not drawn),.,4%,3%,2%,-5%[46.1 µM],4%[46.1 µM],.,4%
CNC(=O)c1ccc(CN(C)CC(=O)Nc2ccccc2C(=O)NC2CC2)cc1,.,.,-1%,-18%,9%,24%,.,9%
O=C(NN=C1CCCCCC1)c1ccncc1,.,-5%,1%,-11%,?,-25%[46.1 µM],.,-11%
O=C(Cn1cc(/C=N/O)c2ccccc21)N1CCOCC1,-2%,1%,-1%,0%,-12%,9%[46.1 µM],0.6%,-10%
CCOCCCNc1nc2c([nH]1)c(=O)n(C)c(=O)n2C,-17%,4%,0%,-21%,1%,-4%,0.1%,17%
COc1cccc(NC(=O)COc2coc(CN3CCN(c4ccccc4)CC3)cc2=O)c1,.,.,0%,?,-1%,1%,.,3%
CCCC(=O)Nc1cccc(NC(=O)c2ccc3c(c2)OCO3)c1,-2%,-11%,3%,13%,17%,-12%,0.8%,5%
CCN(c1cccc(C)c1)S(=O)(=O)c1ccc2c(c1)NC(=O)CCS2,4%,3%,-2%,-15%&-9%,?,6%&6%[46.1 µM],-3.5%,-9%
O=C(N1CCCCCC1)n1c(Cc2ccccc2)nc2ccccc21,8%,-3%[9.22 µM],27%,-11%,3%,-18%,-4.4%,18%
Cn1cnnc1SC1c2cccc3cccc(c23)C1NS(=O)(=O)c1ccc(Cl)cc1 (stereo not drawn),2%,9%,?,4%,-19%,-7%,-4.7%,.
Cc1nnc(C)n1N,.,.,1%,-6%,2%[46.1 µM],-1%[46.1 µM],.,-5%
CC1CCCN(CCCOc2ccc(Br)cc2Cl)C1 (stereo not drawn),.,-4%,0%,15%,?,?,.,-22%
CN(C)/C=C1\Oc2ccc3ccccc3c2C1=O,.,.,0%,44%[activator],?,?,.,-12%
COc1ccccc1CNC(=O)C(NS(=O)(=O)c1cccc2nsnc12)C(C)C (stereo not drawn),.,-2%,1%,-16%,.,-6%,.,5%
CCN(c1ccccc1)S(=O)(=O)c1cc(NC(=O)CSc2n[nH]c(=O)[nH]c2=O)ccc1Cl,.,6%,1%,-23%,.,.,.,0%
O=C(c1cc(-c2ccccc2)nc2ccccc12)N1N=C(C(F)F)CC1(O)C(F)F (stereo not drawn),-2%,-5%,-2%,3%,?,-1%,-8.8%,15%
CCCCn1c(O)c(/C=N/NC(=O)c2ccncc2)c(=O)[nH]c1=S,.,-8%,3%,-1%,-3%,?,.,6%
Cc1ccc(CN2CCSc3sccc3C2=O)cc1,.,-38%,-1%,6%,.,.,.,-17%
Cc1cc(NC(=O)c2ccc(NC(=O)C3CCCO3)cc2)ccc1Br (stereo not drawn),.,2%,0%,?,.,.,.,1%
CC(C)C(OC(=O)c1cccs1)C(=O)NC1CCCCC1 (stereo not drawn),0%,3%,-11%,?,?,8%,-1.6%,15%
CCC12CC3CC(C1)CC(C(=O)Nc1nn[nH]n1)(C3)C2,9%,2%,6%,7%,?,5%,-8.1%,3%
Clc1ccc2nc(CSc3ncn[nH]3)cn2c1,.,1%,-2%,36%[activator],6%,?,.,-5%
COc1ccc(S(=O)(=O)Nc2cccc(NC(C)=O)c2)cc1,-6%,?,1%,7%,18%,-7%,-2.6%,-11%
O=C(NC(Cc1ccccc1)C(=O)O)/C(=C/c1ccc(F)cc1)NC(=O)c1ccccc1 (stereo not drawn),8%,0%,0%,5%,.,5%,-3.7%,16%
Cc1ccc(NC(=O)c2cc(N3C(=O)C=CC3=O)ccc2Cl)cc1C,-7%,-22%,-99%,-7%,-5%,?,-5.6%,10µM*
CS(=O)(=O)N1CCN(c2ccccc2NC(=O)Nc2cccc(Cl)c2)CC1,.,-2%,-1%,7%,.,.,.,2%
C/C(=N/NC(=O)c1ccco1)c1ccc(NC(=O)c2ccc(F)cc2)cc1,?,-7%,-9%,22%,?,-11%,-3.7%,1%
CCCCCCc1cc2cc(C(=O)Nc3ccccc3OC)c(=O)oc2cc1O,?,3%,-17%,-2%,12%,-3%,-2.0%,-14%
Cc1c(NS(=O)(=O)c2cc(C(=O)NCCN(C)C)ccc2Cl)c(=O)n(-c2ccccc2)n1C,.,8%,1%,-8%,30%[46.1 µM],17%[46.1 µM],.,4%
CC(Cc1ccccc1)N1C(=O)c2ccccc2C1=O (stereo not drawn),.,-9%,-1%,34%[activator],.,.,.,8%
Clc1cc(Cl)c(-c2cc(Cl)c(Cl)cc2Cl)cc1Cl,-9%,.,0%,-17%,.,-1%,-0.4%,7%
CC1=NN(C(N)=S)C(=O)C1N=Nc1cccc(Cl)c1C (stereo not drawn),.,-40%,3%,45%[activator],.,.,.,-18%
Cc1ccc(NC(=O)c2sc(N)nc2-c2ccccc2)cc1C,.,-15%,-2%,-15%,9%,?,.,5%
COc1ccc(C(=O)Nc2ccccc2C(=O)N2CCN(c3ccccc3)CC2)cc1,.,-2%,-3%,-5%,5%,4%,.,7%
COCCNc1oc(Cc2cccc3ccccc23)nc1C#N,.,3%,3%,3%,.,.,.,18%
O=C(Cn1c(=O)ccn(Cc2ccccc2)c1=O)Nc1cccc(S(=O)(=O)N2CCOCC2)c1,.,.,-8%,-13%,9%,16%,.,-13%
CC1=CC(C)(C)n2c(O)c(N=NC(N)=S)c3cccc1c32,-4%,-3%,-25%,-15%,-18%,?,-21%,-4%

# Compound profiles (already shown). Order of values: Cruzain inh noDet	NS1 function inh	SARS PLP yeast	2A StopGo	LASV entry inh	MARV entry inh	Cruzain inh Det	RE007 growth inh
# Profile of COCCNc1oc(Cc2cccc3ccccc23)nc1C#N : .	3%	3%	3%	.	.	.	18%
# Profile of CCC12CC3CC(C1)CC(C(=O)Nc1nn[nH]n1)(C3)C2 : 9%	2%	6%	7%	?	5%	-8.1%	3%
# Profile of O=C(NC(Cc1ccccc1)C(=O)O)/C(=C/c1ccc(F)cc1)NC(=O)c1ccccc1 (stereo not drawn) : 8%	0%	0%	5%	.	5%	-3.7%	16%

# Next part.
Molecule,Cruzain inh noDet,NS1 function inh,SARS PLP yeast,2A StopGo,LASV entry inh,MARV entry inh,Cruzain inh Det,RE007 growth inh
CCOC(=O)C1CCN(S(=O)(=O)c2ccc(OCC)cc2)CC1,7%,-3%,-4%,?,3%,-1%,0.2%,18%
CN(C)Cc1c(C(=O)N/N=C/c2cccc3ccccc23)nnn1-c1nonc1N,.,-2%,15%,-27%,6%[46.1 µM],-3%[46.1 µM],.,-9%
CCOC(=O)C1CCN(C(=O)CN2C(=O)CSc3ccc(S(=O)(=O)N4CCOCC4)cc32)CC1,.,2%,-3%,-6%,.,.,.,10%
CC12CCC(=O)N1C(C(=O)Nc1ccc(Cl)c(Cl)c1)CS2 (stereo not drawn),.,.,1%,-15%,-23%,0%[46.1 µM],.,-14%
CN(CCCC(=O)Nc1ccc(Br)cc1F)S(=O)(=O)c1ccccc1,.,-22%,-6%,-17%,.,.,.,7%
Cc1nn(-c2ccccc2)c(Cl)c1/C=C1/C(=N)N2N=C(C(C)C)SC2=NC1=O,?,17%,2%,-20%,-16%,-15%,-6.4%,-9%
CCOC(=O)C1CCN(C(=O)CSCc2nc(-c3ccc(OCC)cc3)oc2C)CC1,?,-18%,-15%,?,?,?,0.1%,7%
CCOC(=O)c1ccc(NC(=O)CCc2nnc3ccc(N4CCN(C)CC4)nn23)cc1,.,13%,1%,0%,?,?,.,4%
COc1ccc(OC)c(NC(=O)c2c(NCc3ccc(N(C)C)cc3)sc3c2CCCC3)c1,-14%,.,.,0%,-12%[46.1 µM],.,-4.0%,.
COc1ccc(-c2csc3nc(-c4ccccc4C)oc(=O)c23)cc1OC,4%,.,.,-25%,0%[46.1 µM],7%[46.1 µM],-2.0%,.
CC(C)(C)NC(=O)COC(=O)c1ccc(F)cc1Cl,.,.,0%,38%[activator],9%[46.1 µM],?,.,2%
O=C1CC(N2CCC(O)(c3ccc(Br)cc3)CC2)C(=O)N1c1ccc(Cl)cc1 (stereo not drawn),3%,-49%,-71%,?,6%,?,-2.8%,10µM*
CC(C)Cc1nnc(NC(=O)CCC(=O)N2CCCCC2)s1,.,1%,17%,-3%,.,.,.,9%
CCOC(=O)c1ccc2ncc(C(=O)OCC)c(Nc3ccc(N4CCOCC4)cc3)c2c1,?,10%,9%,?,?,7.9µM*,-19%,22%
Nc1c(-c2cccc(Cl)c2)cnn1-c1cccc([N+](=O)[O-])c1,4%,-30%,-8%,-1%,10%,?,-5.5%,-20%
CN1CCCC(OC(=O)c2cc(Br)ccc2Cl)C1 (stereo not drawn),0%,-16%,-10%,4%,8%,16%,2.3%,-15%
COc1ccccc1N1CCN(c2ncnc3c2c(-c2ccccc2)cn3-c2cccc(C)c2)CC1,4%,.,.,-10%,-4%[46.1 µM],.,0.5%,.
COCCNC(=O)C(OC(=O)c1cccs1)c1ccc(F)cc1 (stereo not drawn),.,-2%,1%,-11%,.,.,.,-7%
